# Screening data: PubChem, PCMD
# Calb biofilm kill: mixture kills Candida albicans biofilm cells; C. albicans biofilm persisters + clotrimazole, fluorescence viability; primary screen in compound mixtures of four per well; inhibition, % at 7.6 µM; 0.02% of 120,000 active;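 active = inhibition above 30.3% in the primary screen of four-compound pools, then above 30% when the compound was retested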;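 also: compounds exposed to preformed 24 h biofilms for 48 h; the number belongs to the whole pool; some results filed as inactive read as strong as hits; inactives centre near 12; 0% = biofilm with clotrimazole alone and 100% = kill control; retested singly at about 60 µM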
#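 Test system: C. albicans CAF4-2 wild-type biofilms; buffer or medium: RPMI/MOPS medium, pH 7.0; schedule: 24 h biofilm formation, then 48 h compound exposure, 37 °C; detection: Alamar Blue fluorescence; measure: percent inhibition of biofilm viability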
# Numbers without * were called inactive. Some of the compounds tested; rates above refer to the full screens.
SMILES,Calb biofilm kill
CCOc1ccc(N=C2SC(C(=O)Nc3ccccc3C#N)C(N)=C2C(=O)Nc2ccc(Cl)cc2)cc1 (stereo not given),14
Cc1ccc(C(=O)Nc2ccc(N3CCN(C(=O)c4ccco4)CC3)cc2)cc1,-1
Cc1csc(NC(=O)/C=C/c2ccc(C)o2)n1,31
NC(=O)Cn1nc([N+](=O)[O-])nc1Oc1ccccc1F,18
CCN(CC)C(=O)Cn1c(=O)n(-c2ccccc2)c(=O)c2sccc21,9
Cc1ccc(C)c(/C=N/Nc2nc3ccccc3c(=O)n2O)c1,23
CNC(=S)NNC(=O)COc1ccc(C)c(C)c1,-4
Cc1ccccc1-n1c(SCc2cccc(F)c2)nc2[nH]ncc2c1=O,-7
CC(=O)NS(=O)(=O)c1ccc(NC(=O)c2ccc3c(c2)C(=O)N(CCC(C)C)C3=O)cc1,8
O=C(CCc1nc2ccccc2s1)NC1CCOC1=O (stereo not given),4
Cc1c([N+](=O)[O-])nnn1-c1cc(Cl)cc(Cl)c1,5
CC(=O)c1ccc(NC(=O)CSc2ccc(-c3ccc4c(c3)OCO4)nn2)cc1,-1
O=c1oc(Nc2ccccc2Cl)nc2ccccc12,17
COc1ccc(NC(=O)/C=C/c2cc(OC)c(OC)c(OC)c2)cn1,15
COc1ccc(CC(=O)Nc2nc3ccccc3[nH]2)cc1,0
O=C1Nc2ccc([N+](=O)[O-])cc2OC1CCN1CCN(Cc2ccccc2)CC1 (stereo not given),10
CC(C)=CC[N+]1(C)CCCCC1,17
O=C(CSc1nc(-c2cccs2)cc(C(F)(F)F)n1)Nc1cc(OCC(F)(F)C(F)F)cc([N+](=O)[O-])c1,3
O=C(/C=C\c1cccs1)c1c(O)ccc2ccc(=O)oc12,7
O=C(/C=C/c1ccco1)NC(=S)Nc1nc(-c2ccc(Cl)cc2)cs1,17
COC(C[C@@H]1O[C@H]1[C@@H](O)COCc1ccccc1)OC,20
COc1ccc2cc(C#N)c(N3CCN(C(=O)c4ccccc4C)CC3)nc2c1,1
Cc1cc(C(=O)Nc2ncn(Cc3ccc(F)cc3)n2)ccc1[N+](=O)[O-],-4
CSc1ncc(OCc2ccccc2)c(=O)[nH]1,7
CSCCC(NC(=O)c1ccco1)C(=O)OCc1cc([N+](=O)[O-])cc2c1OCOC2 (stereo not given),12
N#CC1(NC(=O)CN2CCc3ccccc3C2)CCCC1,9
COc1ccc2nc(NC(=O)Nc3cccc4ccccc34)sc2c1,6
O=C(O)C1=C[C@H](c2ccc(Br)cc2)C[C@H](OCc2ccc(CO)cc2)O1,20
O=C(Nc1c2c(nn1-c1ccc(F)cc1)CS(=O)C2)c1ccc(S(=O)(=O)N2CCOCC2)cc1 (stereo not given),10
Cc1cccc(C(=O)NCCN2CCOCC2)c1[N+](=O)[O-],9
N=C1C(c2nc3ccccc3s2)=C(O)CN1NC(=O)c1ccccc1[N+](=O)[O-],9
CNC(=O)c1ccccc1NC(=O)C1CC(=O)N(c2ccc(OC)cc2)C1 (stereo not given),13
COc1cc(/C=N/NC(=O)CC2(C)OCCO2)cc(Br)c1O,4
CCOP(=O)(OCC)C(NC(=O)Nc1ccc(Cl)c(Cl)c1)c1ccccc1 (stereo not given),18
C=C(C)C1Cc2c(C)nn(-c3cccc4cccnc34)c2C1 (stereo not given),8
O=S1(=O)Cc2cc3ccccc3cc2C1,2
Cc1cc(C)[n+](-c2ccc(F)cc2)c2[nH]c(=O)[nH]c(=O)c12,11
CC(C)Cc1cc(C(=O)N2N=C(C(F)F)CC2(O)C(F)F)c2ccccc2n1 (stereo not given),16
NC(=O)[C@@H]1CCCNc2c(I)cc([N+](=O)[O-])cc2C(=O)N[C@@H](Cc2ccccc2)C(=O)N[C@@H](Cc2cnc[nH]2)C(=O)N1,11
COC(=O)c1ccc(NC(=S)N2CCN(Cc3ccccc3OC)CC2)cc1,22
CCCCC(=O)OCC(=O)Nc1ccc(SC(F)F)cc1,7
Cc1ccccc1OCC(=O)Nc1ccc2c(c1)n(C)c(=O)n2C,9
COCCN=c1scc(C)n1/N=C/C1CC2C=CC1C2 (stereo not given),-2
O=C(/C=C/c1cccc([N+](=O)[O-])c1)Nc1ccccc1N1CCOCC1,22
Cc1[nH]c2ccccc2c1C(=O)COC(=O)Cn1cnc2ccccc21,20
COc1cccc(C2CC(c3ccccc3Cl)Nc3nc(N)nn32)c1 (stereo not given),8
COCCn1c(=NC(=O)c2ccc(S(=O)(=O)N3CCc4ccccc4C3)cc2)sc2cc(OC)ccc21,16
O=C1CC(C(=O)Nc2ccc(Br)cc2)S/C(=N\N=C\c2ccco2)N1 (stereo not given),23
O=C(CSc1nncc(=O)[nH]1)NCc1ccccc1,-7
CCc1ccccc1NC(=O)c1ccc(NS(C)(=O)=O)cc1,7
Cc1ccc(NC(=O)Cn2cc(S(=O)(=O)c3ccc(F)cc3)c(=O)c3cc(F)ccc32)cc1,6
O=C(C/C=N\OCc1ccc([N+](=O)[O-])cc1)Nc1ccc(Br)cc1,18
CCOC(=O)N1CCC(NC(=O)c2ccc3c(Cl)c4c(nc3c2)CCCC4)CC1,6
COc1ccc(NCC(=O)N/N=C/C(C)c2ccccc2)cc1 (stereo not given),1
CC(C)(C)c1ccc(C(CC(=O)O)NC(=O)CCCc2ccccc2)cc1 (stereo not given),16
COc1ccccc1CN1CCNC(=O)C1CC(=O)NC1Cc2ccccc2C1 (stereo not given),14
C=CCNC(=O)c1ccccc1NC(=O)c1ccccc1C,12
O=[N+]([O-])c1cccc(-c2nc(Oc3ccc(Cl)cc3)c3ccccc3n2)c1,14
Cc1cccc(NC(=O)CN2C(=O)N/C(=C/c3ccc(-c4cccc(C(=O)O)c4C)o3)C2=O)c1,9
O=C(Cn1cc(C(F)(F)F)ccc1=O)NC(c1ccccc1)c1ccccc1,13

# A different layout for part of the listing above:
CC(=O)NS(=O)(=O)c1ccc(NC(=O)c2ccc3c(c2)C(=O)N(CCC(C)C)C3=O)cc1
  Calb biofilm kill = 8
O=C(CCc1nc2ccccc2s1)NC1CCOC1=O (stereo not given)
  Calb biofilm kill = 4
Cc1c([N+](=O)[O-])nnn1-c1cc(Cl)cc(Cl)c1
  Calb biofilm kill = 5
CC(=O)c1ccc(NC(=O)CSc2ccc(-c3ccc4c(c3)OCO4)nn2)cc1
  Calb biofilm kill = -1

# (list continues)
SMILES,Calb biofilm kill
CC1=C(C(=O)Nc2ccccc2)C(c2ccc(Cl)cc2)n2c(s/c(=C/c3cccc(OCC(=O)O)c3)c2=O)=N1 (stereo not given),3
CCN(CC)S(=O)(=O)c1ccc(N2CCOCC2)c(NC(=O)C2CCCC2)c1,16
Cc1nc(NC(=S)NC(=O)COc2ccc(Cl)cc2)ccc1Br,7
C=CCn1c(-c2ccccc2)nc(=S)c2c1CCCC2,31
COCCN(C(=S)Nc1cccc(Cl)c1C)C(C)c1ccco1 (stereo not given),18
Cc1cc2c(ncn2Cc2ccccc2)c(N)c1C,14
O=C1CCC/C1=C/Nc1cccc(F)c1,3
O=C(Nc1ccccn1)c1ccc(CN(c2ccccc2)S(=O)(=O)c2ccccc2)cc1,-6
CCOCCCn1c(SC(C(=O)Nc2cc(C)ccc2C)c2ccccc2)nnc1-c1ccc(Cl)cc1 (stereo not given),7
O=C(CN(CCc1ccccc1)S(=O)(=O)c1ccc(Br)cc1)N/N=C/c1ccccc1C(=O)O,0
CCOC(=O)C1=C(C(F)(F)F)Nc2ncnn2C1c1ccc(OC)c(OC)c1OC (stereo not given),13
CC1=NN(c2ccc(C)cc2C)C(=O)C1C(c1ccccc1O)C1C(=O)N(c2ccc(C)cc2C)N=C1C (stereo not given),7
COCCCn1c(SCC(=O)NCc2ccccc2)nc2ccccc2c1=O,11
Cc1c(Cl)cccc1NC(=S)N(Cc1cccnc1)Cc1ccccc1Cl,9
COc1c(F)c(F)c(C(=O)O)c(Nc2cc(C)cc(C)c2)c1F,5
Cc1ccc(NC(=O)c2cccs2)cc1NC(=O)c1cccnc1,9
Cc1ccc(N2C(=O)NC(C(F)(F)F)(C(F)(F)F)C3=C2CC(C)(C)CC3=O)cc1,11
Cc1cccc(NC(=O)/C(C#N)=C\c2cc(C)n(-c3ccc(C(=O)O)cc3)c2C)c1,15
CCNC(=S)N(Cc1c(C)noc1C)c1ccccc1,13
O=C1CCC(C(=O)OC(C(=O)c2c[nH]c3ccccc23)c2ccccc2)=NN1 (stereo not given),6
COCCCNC(=O)c1ccc(CN2CCc3ccccc3C2)cc1,23
Cn1cc(CN2CCCCC2c2ccccn2)c(-c2ccc3c(c2)OCCO3)n1 (stereo not given),14
Cc1ccnc(SCc2cc(=O)c(OC(=O)c3ccc(S(=O)(=O)N(C)C)cc3)co2)n1,5
CCOc1ccc(C(=O)NC(=S)Nc2ccccc2N2CCCCC2)cc1[N+](=O)[O-],11
CC(=O)N1CCn2c3c(c4cc(C)ccc42)CCCC31 (stereo not given),-7
Cc1ccc(C(C)C)cc1NC(=O)Nc1ccc([N+](=O)[O-])cc1,26
COC(=O)CCc1c(C)c(C(=O)c2cc(F)c(F)c(F)c2F)c2ccccn12,9
CC(C)(C)c1csc(NNC(=O)c2ccc(Cl)cc2)n1,8
Cc1cc(O)ccc1N=Cc1c(C(F)(F)F)[nH][nH]c1=O,18
CN(CC(O)Cn1cnc2c1c(=O)n(C)c(=O)n2C)c1ccccc1 (stereo not given),5
Cc1cc(NC(=O)CN2CCN(c3cccc(Cl)c3)CC2)no1,18
Nc1nc(N2CCN(c3ccc(F)cc3)CC2)n[nH]1,9
Cc1[nH]n(-c2ccc([N+](=O)[O-])cc2)c(=O)c1/C=N/N1CCOCC1,4
O=C(C1=C[C@@H](C2CC2)C[C@@H](OCCCCO)O1)N1CCN(Cc2ccc3c(c2)OCO3)CC1,14
O=C(CSc1nnc(-c2ccc(Cl)cc2)n1Cc1ccco1)Nc1ccc2c(c1)OCCO2,6
CCNC(=S)N1CCN(Cc2ccc3c(c2)OCO3)CC1,22
CCCCCCCCc1nc(SC(C)C(=O)O)n[nH]1 (stereo not given),17
COC(=O)c1sccc1Oc1c(Cl)cccc1[N+](=O)[O-],-4
CCOc1ccc2nc(NC(=O)CC3Oc4ccccc4NC3=O)sc2c1 (stereo not given),23
Cc1ccc(S(=O)(=O)N/N=C2/CCCCC2C2CCCCC2)cc1[N+](=O)[O-] (stereo not given),10
NC(=O)NC(CC(=O)NCCCc1ccccc1)c1ccc(Cl)cc1 (stereo not given),19
COc1ccc(/C=N/n2c(-c3cc(C)[nH]n3)n[nH]c2=S)cc1OC,10
CCOC(=O)C1=NNC(C(=O)c2ccc(Cl)cc2)C1c1ccc(OC)cc1 (stereo not given),9
CCC(C)C(NC(=O)C(CC(C)C)NC(=O)C(CO)NC(=O)C1CCC(=O)N1)C(=O)OC (stereo not given),7
Cn1cc([C@@H]2C[C@H]3CN(Cc4cccc(Cl)c4)C(=O)[C@]34CCCN24)c2ccccc21,16
CC(C(=O)NC1C(=O)N2C(C(=O)O)=C(CSc3nnnn3C)CSC12)n1cc(Cl)cn1 (stereo not given),2
CC(=O)NCCc1csc(-c2ccccc2)n1,12
Cc1ccc(C)n1-c1ccc(C(=O)N/N=C/c2ccncc2)cc1,-3
Nc1nn2c(-c3ccccc3)cc(=O)[nH]c2c1N=Nc1ccc(O)cc1,9
CCOc1ccc(N(CC(=O)Nc2ccc(C)cc2)S(=O)(=O)c2c(C)[nH]c(=O)[nH]c2=O)cc1,16
CCC(c1n[nH]c(=S)n1-c1ccccc1)N(C)C (stereo not given),11
CC(C)N(C(=O)Cc1ccccc1[N+](=O)[O-])C(C)C,-13
COCc1nc2sc3c(c2c(=O)[nH]1)CCCC3,10
N#C/C(=C(/O)c1cc2ccccc2o1)c1nc2ccccc2s1,17
CCCCNC(=O)C1(c2ccc(OC)cc2)CCOCC1,10
Cc1ccc(C(=O)OC(C(=O)Nc2ccc(Cl)cc2C(F)(F)F)c2ccccc2)cc1 (stereo not given),9
O=C(C1=C[C@@H](c2ccccc2)C[C@@H](OCCCCO)O1)N1CCOCC1,8
O/N=C\c1ccc(-c2ccccc2)o1,1
CC1CCN(CCCNC(=O)CN2CCN(Cc3ccc(Cl)cc3)C2=O)CC1,6
COCCN1C(=O)N[C@@H](CCc2ccccc2)[C@H](C(C)=O)[C@H]1C,18

# 3 structures out of the list, ordered by length of the SMILES, falling.
SMILES,Calb biofilm kill
CC(C(=O)NC1C(=O)N2C(C(=O)O)=C(CSc3nnnn3C)CSC12)n1cc(Cl)cn1 (stereo not given),2
COCCN1C(=O)N[C@@H](CCc2ccccc2)[C@H](C(C)=O)[C@H]1C,18
N#C/C(=C(/O)c1cc2ccccc2o1)c1nc2ccccc2s1,17

# Other compounds.
SMILES,Calb biofilm kill
COc1cccc(/C=C/C(=O)Nc2ccc(N3CCOCC3)cc2)c1OC,13
O=C(Nc1ccc(S(=O)(=O)Nc2nccs2)cc1)c1cc(-c2ccccn2)nc2ccccc12,13
COc1ccc(C(=O)NCCC2=CCCCC2)cc1[N+](=O)[O-],-20
Cc1sc2nc(CSc3ccc([N+](=O)[O-])c(C(F)(F)F)c3)[nH]c(=O)c2c1C,11
NC1=NC(c2ccccc2)N=C(Nc2ccccc2)N1 (stereo not given),17
Cc1ccc(S(=O)(=O)N(C)C)cc1NC(=O)CCc1ccccc1,24
